# Screening results deposited in PubChem BioAssay by several laboratories.
# eIF4H FP inh = inhibitors of RNA binding by human eIF4H; inhibition, % at 35 µM; AID 2012; eIF4H fluorescence polarization binding assay; actives 0.94% (n = 290,000); Q15056;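 active means 50% or more with normal probe brightness, or confirmed in later tests; inconclusive means above 50% with abnormal brightness, or retests that disagree; inactive means below 50% or failed in later tests; about a fifth of its hits are not listed in these tables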;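 further: calls also rest on retests at 20 µM and on dose response follow-up; 0% = protein and probe with vehicle and 100% = probe without protein; strong numbers were not always called active; many hits fall short of the cut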
# Env fusion inh = inhibitors of HIV Env-mediated cell fusion; HeLa-JRFL Env/CEM21 cell fusion, luciferase; inhibition, % at 12.3 µM; actives 1.1% (n = 360,000);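 active means mean replicate inhibition score of at least 50 and every replicate individually at or above 50; inconclusive means only one of the two criteria met; inactive means mean below 50 and not all replicates reaching 50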;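 further: 0% = plate neutral controls and 100% = maraviroc near 300 nM; one replicate is shown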
# Yeast UUG start = alters start codon recognition fidelity in yeast | S. cerevisiae UUG-firefly luciferase reporter, luminescence/redox ratio | activity score, % at 18.7 µM | actives 0.13% (n = 350,000);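 active means replicate mean at a twofold rise or more, about +100% in these data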;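 further: firefly luciferase made from a UUG start codon reports start codon fidelity; reporter light over untreated wells divided by growth signal over untreated wells; some hits fall short of that in this replicate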
# MT1-MMP act inh = inhibitors of human MT1-MMP activation. HT1080 RFP-PRO-GFP cells, GFP/RFP ratio fluorescence, overnight; percent of plate control window, DMSO zero. GFP/RFP ratio change, % at 20 µM. P50281. actives 0.061% (n = 360,000);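 active means GFP/RFP ratio change of at least 30% with cell ATP level not reduced by more than half and red fluorescence within 50% of control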; further: strong numbers were not always called active
#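 Test system: HT1080 RFP-PRO-GFP cells; Benchmarks: DMSO and RFP-L50D-GFP cell wells; Timing: cells overnight before dosing, compound overnight, 37 °C, 5% CO2; Compound: one 20 µM compound dose with 1% DMSO; Read-out: GFP/RFP fluorescence ratio.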
# PABP FP inh = blocks human PABP binding to poly(A) RNA; fluorescence polarization; AID 2014; inhibition, % at 35 µM; actives 1% (n = 290,000); P11940;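 active means 50% or more with normal probe brightness, or confirmed in later tests; inconclusive means above 50% with abnormal brightness, or retests that disagree; inactive means below 50% or failed in later tests; about a fifth of its hits are not listed in these tables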;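 further: calls also rest on retests at 20 µM and on dose response follow-up; controls were probe without protein and protein plus probe with vehicle; some compounds called inactive have numbers as strong as hits; many hits fall short of the cut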
# Target sequence (P11940 whole entry, looked up): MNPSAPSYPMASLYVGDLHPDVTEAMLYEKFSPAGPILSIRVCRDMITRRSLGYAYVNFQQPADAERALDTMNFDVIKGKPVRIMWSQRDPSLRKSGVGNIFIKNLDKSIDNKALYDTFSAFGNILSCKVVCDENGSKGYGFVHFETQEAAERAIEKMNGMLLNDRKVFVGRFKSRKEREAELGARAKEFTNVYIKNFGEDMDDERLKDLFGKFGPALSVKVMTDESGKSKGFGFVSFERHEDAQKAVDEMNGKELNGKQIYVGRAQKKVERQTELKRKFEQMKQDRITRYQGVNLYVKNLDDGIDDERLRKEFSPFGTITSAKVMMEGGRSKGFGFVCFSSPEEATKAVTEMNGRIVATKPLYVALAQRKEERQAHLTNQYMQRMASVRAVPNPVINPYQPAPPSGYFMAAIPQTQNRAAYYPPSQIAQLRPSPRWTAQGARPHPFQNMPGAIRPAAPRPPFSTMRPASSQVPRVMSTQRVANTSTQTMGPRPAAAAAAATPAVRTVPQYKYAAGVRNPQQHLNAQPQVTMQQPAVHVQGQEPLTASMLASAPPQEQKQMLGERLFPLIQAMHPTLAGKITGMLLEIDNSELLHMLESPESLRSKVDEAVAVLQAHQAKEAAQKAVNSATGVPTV
# CSC inhib = blocks cancer stem cells. cancer stem cell-like cells viability, luminescence. actives 1.1% (n = 300,000). inhibition, % at 7.5 µM. AID 2717;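 active means mean at 75% or more and at least half the replicates too; inconclusive means mean and replicates disagree; tested in HMLE shEcad cells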;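 further: 0% = median of negative and 100% = median of positive control wells; the first replicate is given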
# Rce1 inhib = blocks yeast Ras-converting enzyme. calls only. Q03530. AID 2563. actives 0.27% (n = 290,000). yeast membranes, quenched prenylated peptide cleavage fluorescence;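 active means fall in fluorescence gain of 50% or more versus controls, with final raw signal at or below 3038400; inconclusive means same 50% fall but final raw signal above 3038400; inactive means fall in fluorescence gain under 50%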;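 further: plate controls were neutral control wells for no effect and wells lacking membranes for full effect; tested at 10 µM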
# Target sequence (Q03530 whole entry, looked up): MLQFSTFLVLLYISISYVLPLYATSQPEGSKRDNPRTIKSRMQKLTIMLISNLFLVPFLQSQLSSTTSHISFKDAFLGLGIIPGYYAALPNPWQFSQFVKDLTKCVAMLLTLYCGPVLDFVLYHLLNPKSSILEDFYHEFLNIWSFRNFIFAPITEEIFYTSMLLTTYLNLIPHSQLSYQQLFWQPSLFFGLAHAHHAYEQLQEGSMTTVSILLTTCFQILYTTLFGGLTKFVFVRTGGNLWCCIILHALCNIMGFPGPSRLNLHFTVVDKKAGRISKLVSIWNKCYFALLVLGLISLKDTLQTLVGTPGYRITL
# eIF4H FP inh retest = second read-out of eIF4H FP inh, no call of its own (marks repeat the call); inhibition, %; compound at 20 µM; confirmation average;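 mean of two retest wells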
# PABP FP inh retest = also measured in PABP FP inh; calls as there; inhibition, %; compound at 20 µM; confirmation repeats;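 mean of two retest wells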
# MT1-MMP act inh RFP = further read-out of MT1-MMP act inh, marked with its call; RFP signal change, %; measured here: RFP expression control read;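 0 = vehicle wells; hits needed this value within 50% of zero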
# * marks the source's active call; other numbers are inactive results; i = inactive; ? = inconclusive; / = no result given. The list is partial; rates above refer to the full screens.
SMILES,eIF4H FP inh,Env fusion inh,Yeast UUG start,MT1-MMP act inh,MT1-MMP act inh RFP,PABP FP inh,CSC inhib,Rce1 inhib,others
COc1ccccc1CNC(=O)CN1C(=O)COc2ccc(S(=O)(=O)NC3CCCC3)cc21,4.3,5.5,-7.8,0.3,-0.1,-1.8,-8.2,i,
CC(C)(C)c1ccc(-c2nnc(SCC(=O)c3ccc4c(c3)OCCO4)o2)cc1,-2.3,/,/,4.6,6.9,-9.2,/,i,
Cc1ccc(NC(=O)CCNC(=O)c2ccccc2Cl)cc1S(=O)(=O)N1CCOCC1,/,-7.1,-0.5,3.2,5.9,/,/,/,
Oc1[nH]c2ccc(Br)cc2c1N=Nc1ccc(F)cc1,?,-16.8,-10.3,-9.6,-4.7,?,12.5,i,
Cc1nc(-c2ccc(C(=O)N3CCCC3)cc2)cs1,-0.9,-13.5,/,2.2,3.4,15.4,9.0,i,
CO[C@@]1(NC(=O)CSCC#N)C(=O)N2C(C(=O)O)=C(CSc3nnnn3C)CS[C@@H]21,68.6,-3.4,-41.2,-2.6,0.5,-4.0,-7.8,i,eIF4H FP inh retest=3.1;PABP FP inh retest=-6.3
COc1cccc(N2C(=O)Nc3ccccc3C2(O)C(=O)NCc2ccc3c(c2)OCO3)c1 (configuration not stated),4.3,-53.4,-10.3,3.6,1.2,-7.6,/,/,
COc1ccc(C(CC(=O)O)NC(=O)c2ccccc2)cc1OC (configuration not stated),6.1,/,-10.9,-0.2,2.4,-1.6,8.7,/,
COc1ccc(C2=C(CC(=O)O)C(=O)CC2)cc1,-0.2,0.3,-7.8,2.6,6.1,1.4,-18.8,i,
CCN1C[C@@H]2[C@@H]3C(=O)N(Cc4ccccc4)C(=O)[C@@H]3[C@](CC)(C(=O)OC)N2C1=NC,/,1.3,-16.6,3.4,7.6,/,/,/,
CC1CN(C(=O)CSc2cn(CC(=O)N3CCOCC3)c3ccccc23)CC(C)O1 (configuration not stated),/,9.4,-12.7,-0.5,4.5,/,-20.9,i,
COc1ccc(S(=O)(=O)NC(C)C(=O)N2CCCC2)cc1Cl (configuration not stated),56.9,-0.6,-14.4,3.2,-0.5,-12.4,/,i,eIF4H FP inh retest=-8.1;PABP FP inh retest=6.1
CCCc1cc(=O)[nH]c(Nc2ccc(OC)c(Cl)c2)n1,5.1,-11.9,-3.3,6.6,-4.0,8.5,-15.7,i,
CC(C)N1CCC(N2CCN(C3CCCCCC3)CC2CCO)CC1 (configuration not stated),21.1,14.2,/,1.4,3.7,11.6,-1.1,/,
Cc1ccc(CNC(=O)c2cc(-c3ccccc3)nn2Cc2cc(C)no2)cc1,/,/,-13.9,-6.0,1.9,/,4.5,i,
CCCN1C2CCCC1CC(NC(=O)C1CCCCC1)C2 (configuration not stated),3.6,-67.6,/,0.6,3.1,-6.8,7.3,i,
O=C1N(c2ccccc2)C(c2ccccc2)C12CCCCC2 (configuration not stated),/,11.9,-15.0,-1.2,-3.5,/,/,/,
COc1ccc(CCN(C)Cc2cccc3ccccc23)cc1OC,11.6,29.7,-14.6,-1.7,2.9,11.7,6.1,i,
CCCn1c(CN2CCCCC2CC)nc2c1c(=O)n(C)c(=O)n2C (configuration not stated),-8.0,/,-1.7,-4.7,2.1,0.5,1.0,i,
CO/N=C(\Cn1ncc(NC2CCCCC2)c(Br)c1=O)c1ccc(Cl)cc1,1.3,/,-2.9,-13.5,-9.7,5.8,43.8,i,
COc1cccc(-n2cc(CN(C)Cc3nc(Cc4ccccc4)no3)cn2)c1,-3.3,0.5,/,0.8,1.9,8.3,-1.2,i,
CCOC(=O)c1c(C)c(C(=O)Nc2ccc(F)cc2)c(C)n1C,-10.1,-2.5,1.4,2.9,1.9,6.9,-16.4,i,
CC1CN(C(=O)c2ccc(C(=O)c3ccccc3)cc2)CC(C)O1 (configuration not stated),-10.4,/,-4.7,0.8,3.2,-1.4,-4.8,i,
CCOC(=O)c1sc2nc(CC(=O)OC)nc(N3CCN(c4ccc(OC)cc4)CC3)c2c1C,-5.5,?,-5.4,-14.6,-11.9,-12.3,23.3,i,
CC(C(=O)NC(=O)NC1CCCCC1)N1CCN(C(c2ccccc2)c2ccccc2)CC1 (configuration not stated),-5.7,-14.3,-15.1,-48.4,-25.8,-6.7,44.2,i,
CC(=O)c1ccc2c(c1)C1C=CCC1C(c1ccc(S(=O)(=O)N3CCOCC3)cc1)N2 (configuration not stated),17.7,-26.7,/,4.7,2.6,1.7,-5.9,/,
O=C(O)CCn1c(=S)n(CCC(=O)O)c2ccccc21,0.7,2.8,-23.2,-6.4,-2.9,0.7,-1.1,i,
CCOC(=O)c1ccc(-c2csc(NC(=O)CN3CCC(C)CC3)n2)cc1,-0.8,-12.9,-1.8,-6.5,-13.4,-7.6,-0.9,i,
O=C(CCC(=O)N(c1ccc(F)cc1)C(C(=O)NC1CCCC1)c1ccncc1)Nc1cccnc1 (configuration not stated),7.8,-14.0,-11.9,0.2,4.3,1.6,9.8,i,
CC1(C(=O)NS(=O)(=O)c2ccc(Cl)s2)CCN1C(=O)c1ccc(C2CCCCC2)cc1 (configuration not stated),/,-9.9,13.9,1.2,-0.2,/,/,/,

# Continued, overlapping the part above by two compounds.
SMILES,eIF4H FP inh,Env fusion inh,Yeast UUG start,MT1-MMP act inh,MT1-MMP act inh RFP,PABP FP inh,CSC inhib,Rce1 inhib,others
O=C(CCC(=O)N(c1ccc(F)cc1)C(C(=O)NC1CCCC1)c1ccncc1)Nc1cccnc1 (configuration not stated),7.8,-14.0,-11.9,0.2,4.3,1.6,9.8,i,
CC1(C(=O)NS(=O)(=O)c2ccc(Cl)s2)CCN1C(=O)c1ccc(C2CCCCC2)cc1 (configuration not stated),/,-9.9,13.9,1.2,-0.2,/,/,/,
CCN(CCCNC(=O)c1c(C)cc(=O)oc1C)c1ccccc1,-6.7,17.0,-26.2,2.2,-0.8,6.5,-8.6,/,
O=C(OCC(=O)N1CCN(C(=O)c2ccco2)CC1)c1cc(-c2ccc(Cl)c(Cl)c2Cl)nc2ccccc12,-1.5,38.2,/,-2.9,-1.0,-6.8,28.8,i,
O=C(NCCN1CCCC1)c1ccc(Br)cc1,-4.9,-0.8,-8.5,-1.2,-1.3,1.1,-14.4,i,
COCCN1Cc2cccc(C(=O)Nc3ccc(C)c(C)c3)c2C1=O,14.1,/,-12.3,-5.0,-4.6,18.7,2.0,i,
COc1ccc(NC(=O)CN2CCN(CC(=O)Nc3cc(OC)cc(OC)c3)CC2)cc1,5.1,/,7.7,3.2,2.4,9.0,/,/,
CC(=O)N1CCN(C2=NC(=O)/C(=C\c3cccs3)S2)CC1,-8.7,-2.9,-12.1,-4.7,-0.1,5.9,-14.7,i,
CCOC(=O)C1=C(CSc2nc(-c3ccccc3)ccc2C#N)OC(N)=C(C#N)C1c1cccnc1 (configuration not stated),?,/,-12.1,-70.3,17.4,?,-15.8,i,
CCOC(=O)c1ccc(NC(=O)c2nc[nH]c2C(=O)N[C@@H](CC(C)C)C(=O)OC(C)(C)C)cc1,-3.1,9.9,-16.4,-12.1,-7.8,-3.0,42.4,i,
Cc1cc(C)n(Cc2ccc(NC(=O)c3c([N+](=O)[O-])c(C)nn3C)cc2)n1,3.2,/,/,-0.1,-2.3,3.9,-10.8,i,
CSC1=N/C(=C\c2ccccc2)C(=O)N1C,-6.3,/,-1.3,1.1,-0.4,5.0,3.5,i,
NC1=NS(=O)(=O)NC1c1cccc(F)c1 (configuration not stated),4.1,12.5,/,-3.8,1.3,4.3,-8.1,i,
Nc1nc2n(n1)C(c1ccccc1Cl)CC(c1ccc(F)cc1)N2 (configuration not stated),-7.2,-25.7,-22.4,1.7,-1.0,6.5,-1.6,i,
CN(c1ccc(C(=O)NCCC2=CCCCC2)cc1)S(C)(=O)=O,3.5,/,-16.5,3.9,0.0,23.9,-5.0,i,
Cc1cc(=O)n2nc(N3CCCC(C(=O)NCc4ccco4)C3)sc2n1 (configuration not stated),6.3,/,-1.2,6.3,8.3,1.8,1.7,i,
CCc1ccc(/C=C2/C(=O)NC(=O)N2C(C)=O)cc1,-1.4,-9.5,-20.4,4.4,-5.9,-1.2,5.6,i,
O=C(NCc1ccc2c(c1)OCO2)c1nn2cccnc2c1Cl,-11.5,/,-15.7,0.0,-1.7,-20.4,5.2,i,
COc1ccc(/C=N/OCC(=O)N2CC3(C)CC2CC(C)(C)C3)cc1 (configuration not stated),-4.2,/,/,1.8,-9.2,7.6,109.7*,i,
O=C(NCc1ccccc1F)C(=O)NCC1CCCN1S(=O)(=O)c1ccccc1 (configuration not stated),/,-19.0,0.6,-1.7,1.8,/,-11.0,i,
O=S(=O)(c1cccc(-c2nn3c(-c4ccncc4)nnc3s2)c1)N1CCOCC1,-8.6,/,/,/,/,5.2,/,i,
CCOC(=O)c1ccc(NS(=O)(=O)c2ccc(SC)cc2)cc1,6.8,-238.5,-0.1,8.9,0.3,-9.1,24.3,i,
CCOC(=O)C1=C[C@@H](c2ccccc2)N(S(=O)(=O)c2ccc(C)cc2)[C@H]1c1cccc(Cl)c1,/,18.7,-13.9,1.2,-15.9,/,/,/,
Cc1ccc(NC(=O)CN2CCC(C(N)=O)CC2)cc1[N+](=O)[O-],-6.5,-4.6,-4.9,0.1,1.2,1.0,3.0,i,
COc1ccc(-c2ccc(-c3nnn(CC(C)=O)n3)cc2)cc1,-4.4,-125.4,-24.0,8.4,-8.6,0.0,-5.4,i,
COc1ccc(NC2c3ccccc3C(=O)N2c2cccnc2)cc1Cl (configuration not stated),-1.4,-35.7,23.0,4.8,-0.6,-7.4,-12.5,i,
CCOc1ccc(-c2nnc(N3CCOCC3)c3ccccc23)cc1,-7.8,6.7,2.2,0.8,-0.8,-0.8,1.1,i,
CSc1cccc(NC(=O)CC(C)n2ccnc2)c1 (configuration not stated),3.4,2.5,-5.6,0.1,0.8,0.3,/,i,
CC(=O)Nc1ccc(S(=O)(=O)NCC2CCC(C(=O)NCCC3=CCCCC3)CC2)cc1 (configuration not stated),-6.5,/,-4.8,1.0,-2.0,-18.1,-7.1,/,
CCOC(=O)C1CCCN(C(=O)c2cccc(C(F)(F)F)c2)CC1 (configuration not stated),/,11.4,-7.3,-2.9,1.9,/,/,/,
N#Cc1nc(-c2ccc([N+](=O)[O-])cc2)oc1N1CCCCC1,4.8,-15.0,-8.8,-6.4,-3.4,9.1,-3.9,i,
COc1cccc(-n2c(C)nnc2SCC#N)c1,0.1,-70.3,-4.6,-3.4,1.3,-8.2,2.4,i,
CC(C)OC(=O)c1ccc(NC(=O)c2cccc(-n3cnnn3)c2)cc1,/,2.6,-4.6,-2.3,-8.6,/,9.5,/,
Cn1c(=O)c2c(nc(Oc3ccccc3Br)n2C)n(C)c1=O,-0.4,15.6,1.8,-4.8,-2.5,6.2,-12.8,i,
CCCc1cc(C(=O)Cc2ccc(F)cc2)c(O)cc1O,3.2,/,13.6,-5.6,-14.9,2.6,81.9*,i,
COc1ccccc1N1CCN(CCN(C(=O)c2ccc(F)cc2)c2ccccn2)CC1,/,-2.6,1.3,4.0,1.0,/,-6.7,/,
COc1ccc(-n2nc(C(=O)NCC(=O)N3CCN(c4ccccc4OC)CC3)c3ccccc3c2=O)c(OC)c1,6.0,-13.6,-4.2,-4.6,-0.8,5.2,-11.2,i,
CS(=O)(=O)N(Cc1ccccc1)c1ccc(C(=O)Nc2ccc3c(c2)OCO3)cc1,1.0,-19.2,-5.6,5.8,-1.4,7.6,-1.8,i,
